CBX7 AlphaScr = CBX7 chromodomain binding inhibitors, primary screen, biochemical, AlphaScreen. normalised signal (fraction of DMSO) (no concentration beside the values). Chromobox protein homolog 7 (Homo sapiens), O95931. hit rate 1.1% among 66,000. AlphaScreen His6-CBX7 / biotin-H3K27me3 peptide binding; stronger effect = lower value; in the data active means normalised signal below about 0.5;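 further: 100 nL library stock added to about 20 µL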
Target sequence (O95931 whole entry, looked up): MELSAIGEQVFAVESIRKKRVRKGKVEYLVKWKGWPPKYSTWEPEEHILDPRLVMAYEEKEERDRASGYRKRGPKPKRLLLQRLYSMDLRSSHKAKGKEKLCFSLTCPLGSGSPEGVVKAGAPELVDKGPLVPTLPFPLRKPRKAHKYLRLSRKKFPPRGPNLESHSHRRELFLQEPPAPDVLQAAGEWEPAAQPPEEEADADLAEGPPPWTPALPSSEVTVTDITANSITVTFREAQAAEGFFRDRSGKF
CBX7 AlphaScr z-score = second read-out of CBX7 AlphaScr, no call of its own (marks repeat the call); z-score; measured here: z-score of CBX7 signal; some inactives read as strong as hits; reference of the scale not given here;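 same signal on another scale; lower means less binding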
* = called active by the depositor; & = joins results of further samples. This is a subset; the hit share may differ from the screen's.

nr	smiles	CBX7 AlphaScr	CBX7 AlphaScr z-score
1	Cc1ccc2nc(-c3ccc(NC(=O)CCCOc4ccccc4C)cc3)sc2c1	1	0.2
2	Cc1c(C(=O)Nc2ccc(F)cc2F)sc2nc(-c3ccc(F)cc3)cn12	1.1	1.5
3	COc1ccc(NC(=O)N(C2CCC(C)CC2)C2CCN(C(C)=O)CC2)c(OC)c1 (stereo not given)	1.1	1.2
4	CC1CCN(S(=O)(=O)c2ccc3[nH]cc(C(=O)NCCCN4CCOCC4)c(=O)c3c2)CC1	1	0.27
5	CCCCn1cnc2cc(NCc3ccc(OCC)cc3)ccc21	0.78	-4.9
6	CCCOc1ccc(CNC(=O)Nc2cccs2)cc1	0.97	-1.4
7	Cc1ccccc1-c1nnc(SCC(=O)N2CCC(C)CC2)o1	0.96	-0.098
8	CC(=O)N1CCN(c2ccc(NC(=O)c3sc4ccccc4c3Cl)cc2)CC1	1.2	1.4
9	COc1ccc2c(c1)c(=O)c(S(=O)(=O)c1ccc(C)cc1)cn2Cc1ccccc1C	0.96	-1.4
10	Cc1ccc(CNC(=O)CCc2nc(-c3cccs3)no2)cc1	1	1.5
11	Cc1ccc2c(c1)N(CCC(=O)NCCc1ccccc1)C(=O)CO2	1	0.56
12	O=C(O)c1cc(-c2ccccc2)n(-c2ccc(Cl)cc2)n1	0.76	-2.6
13	Cc1nc2c(C(=O)N3CCC4(CC3)OCCO4)cnn2c(C)c1Cc1ccc(F)cc1	1	0.68
14	O=C(Cn1nc(C(F)F)cc1C1CC1)N1CCCC1	1.1	0.31
15	CCOc1ccc(-n2ccnc2SCC(=O)NCc2ccccc2)cc1	1.1	0.68
16	COCCn1cc(C(=O)NCc2cccnc2)c2c3ccccc3n(C)c2c1=O	1.1	2.1
17	COc1cc(OC)cc(-c2cc3nc(C)c(CCC(=O)Nc4ccccc4F)c(C)n3n2)c1	0.96	-1.2
18	Cc1ccc2cc(NC(=O)c3ccccc3F)ccc2n1	1&1.1	0.28&0.16
19	O=C(CCc1nc(-c2ccccc2F)no1)N1CCC(N2CCCCC2)CC1	1	1.6
20	CCOc1ccc(S(=O)(=O)Nc2ccc(-c3csc(-c4ccccc4)n3)cc2)cc1	0.92	-0.36
21	CCCCN(C)CCCNC(=O)CN1C(=O)COc2ccc(C(C)(C)C)cc21	1.1	1.3
22	CCCCCCNC(=O)c1c[nH]c2ccc(S(=O)(=O)N3CCCCC3c3cccnc3)cc2c1=O (stereo not given)	1.1	1.7
23	CN(C)CCNC(=O)c1cc2c(s1)CSC2	1.1	0.65
24	c1ccc2c(Nc3ccc4c(c3)OCCO4)c3c(nc2c1)CCC3	0.89	-1.8
25	CCOc1ccc(CCNC(=O)c2nnc(Cc3ccc(F)cc3)o2)cc1OCC	0.8	-2.3
26	COCCCNC(=O)c1cnn2c(C)c(Cc3ccccc3Br)c(C)nc12	1.1	0.38
27	CCC(C)NC(=O)C1(C)CCC(=O)N1CCc1ccc(Cl)cc1 (stereo not given)	1.1	1.6
28	COc1ccc(C(=O)c2oc3ccccc3c2NC(=O)COc2ccc(F)cc2)cc1	0.95	-1
29	Cc1cc(C)c(C(N)=O)c(NCCc2ccccc2)n1	1	1.9
30	Cc1ccc(CCNC(=O)c2cc(Sc3nnc(C)s3)nc3ccccc23)cc1	1.1	1.7
31	Cc1ccc(C2CC(=O)N(c3ccc(F)cc3)C3=C2C(=O)CCC3)cc1 (stereo not given)	1.1	0.88
32	Cc1ccc(C)c(N2CCN(C(=O)CN(C)S(=O)(=O)c3cnc[nH]3)CC2)c1	1.3	3
33	COc1ccc(NC(=O)[C@@H](c2ccccc2)N2Cc3ccccc3C2=O)cc1OC	0.97	-1.1
34	COc1ccc(-c2nc3sc4c(c3c(=O)[nH]2)CCCC4)c2ccccc12	0.94	-0.46
35	Cc1cccc(CCNC(=O)Cc2c(C(=O)O)[nH]c3ccccc23)c1	1	1.1
36	Cc1ccccc1OCC(=O)Nc1c(C(=O)c2ccc(Br)cc2)oc2ccccc12	1	0.1
37	CCN(C(=O)Cc1c(C(=O)O)n(CC)c2ccccc12)c1ccc(F)cc1	1	0.53
38	CCc1nnc(Cn2nnc3c(=O)[nH]c(C(=O)Nc4ccc(C)cc4)nc32)s1	0.82	-4.1
39	CCCc1c(C)nc2c(C(=O)NCc3ccc(F)cc3)c[nH]n2c1=O	1	-0.2
40	Cc1ccc(CNC(=O)C2CCCN(c3nn4c(=O)cc(C)nc4s3)C2)cc1 (stereo not given)	1.1	1.3

A draw from above in order of SMILES length, descending.
nr	smiles	CBX7 AlphaScr	CBX7 AlphaScr z-score
32	Cc1ccc(C)c(N2CCN(C(=O)CN(C)S(=O)(=O)c3cnc[nH]3)CC2)c1	1.3	3
38	CCc1nnc(Cn2nnc3c(=O)[nH]c(C(=O)Nc4ccc(C)cc4)nc32)s1	0.82	-4.1
28	COc1ccc(C(=O)c2oc3ccccc3c2NC(=O)COc2ccc(F)cc2)cc1	0.95	-1
40	Cc1ccc(CNC(=O)C2CCCN(c3nn4c(=O)cc(C)nc4s3)C2)cc1 (stereo not given)	1.1	1.3
37	CCN(C(=O)Cc1c(C(=O)O)n(CC)c2ccccc12)c1ccc(F)cc1	1	0.53
30	Cc1ccc(CCNC(=O)c2cc(Sc3nnc(C)s3)nc3ccccc23)cc1	1.1	1.7
25	CCOc1ccc(CCNC(=O)c2nnc(Cc3ccc(F)cc3)o2)cc1OCC	0.8	-2.3
35	Cc1cccc(CCNC(=O)Cc2c(C(=O)O)[nH]c3ccccc23)c1	1	1.1
26	COCCCNC(=O)c1cnn2c(C)c(Cc3ccccc3Br)c(C)nc12	1.1	0.38
27	CCC(C)NC(=O)C1(C)CCC(=O)N1CCc1ccc(Cl)cc1 (stereo not given)	1.1	1.6
29	Cc1cc(C)c(C(N)=O)c(NCCc2ccccc2)n1	1	1.9

Continued.
nr	smiles	CBX7 AlphaScr	CBX7 AlphaScr z-score
41	CN(C)c1ccc(-c2nc3cc(NC(=O)c4ccc(Cl)cc4Cl)ccc3o2)cc1	0.91	-1.2
42	CCOc1ccc(Sc2cc(C(=O)NCc3ccc4c(c3)OCO4)c3ccccc3n2)cc1	1	1.6
43	Cc1ccc(-c2nc(CS(=O)(=O)CC(=O)N3CCN(Cc4ccccc4)CC3)c(C)o2)cc1	0.93	-0.14
44	CCCN1CCN(CCCNC(=O)C2CCN(c3nnc(-n4cccc4)s3)CC2)CC1	1.6	5.9
45	COc1ccc(C(=O)Nc2nnc(-c3ccccc3)s2)cc1S(=O)(=O)N1CCOCC1	1	1.1
46	CCN(CCNC(=O)C1CCN(c2nn3c(=O)cc(C)nc3s2)CC1)c1ccccc1	1.1	1
47	CCOC(=O)N1CCC(N2Cc3cccc(C(=O)NC4CCN(Cc5ccccc5)CC4)c3C2=O)CC1	1.2	3.3
48	O=C1CC(c2nc3ccccc3n2Cc2ccc(F)cc2)CN1Cc1ccccc1 (stereo not given)	0.85	-1
49	CC1=C(C#N)C(c2ccccc2)C2=C(CCCC2=O)N1 (stereo not given)	0.96	-0.81
50	COc1ccc(C(=O)c2oc3ccccc3c2NC(=O)c2ccc(F)cc2)cc1	1.2	2.9
51	Cc1ccc2nc(NC(=O)C3CCCN(S(=O)(=O)c4cnc[nH]4)C3)sc2c1 (stereo not given)	1	0.35
52	Cc1sc(NC(=O)c2ccc(C#N)cc2)nc1-c1ccccc1	1	0.43
53	COc1ccc(S(=O)(=O)N(CC(=O)Nc2ccc(C)cc2)c2ccc(C)cc2)cc1	0.99	-0.15
54	COc1cccc(-c2nnc(SCC(=O)N3CCCc4ccccc43)o2)c1	0.93	-0.17
55	CCOc1ccc(NC(=O)c2cn(CC)c(=O)c3cc(OC)c(OC)cc23)cc1	0.94	-0.93
56	CCOc1cc2c(cc1OCC)C(c1ccc(OC)cc1OC)NCC2 (stereo not given)	1.3	2.8
57	CCCCNC(=O)c1c[nH]c2ccc(S(=O)(=O)Nc3ccc(C(C)C)cc3)cc2c1=O	0.89	-2.1
58	COc1ccc(C)cc1NC(=O)c1sc2ncn(CC(=O)N3CCCCC3)c(=O)c2c1C	1	0.2
59	CCN1C(=O)c2ccccc2S(=O)c2ccc(C(=O)NCc3ccccn3)cc21 (stereo not given)	0.98	-0.47
60	C=C(C)Cn1c(C2CC(=O)N(c3ccccc3F)C2)nc2ccccc21 (stereo not given)	1.2	1.6
61	CCc1ccc(NC(=O)c2cc(CC(C)C)on2)cc1	1.1	1.3
62	COc1ccc(-c2noc(CCC(=O)NCCN3CCN(c4ccccc4F)CC3)n2)cc1	0.85	-2.4
63	Fc1ccc(CSc2nc3ccccc3o2)c2ccccc12	1.2	4.4
64	CCOc1ccc(C(=O)Nc2ccc3oc(-c4ccc(CC)cc4)nc3c2)cc1	1.1	2.8
65	O=C(C1CC1)N1CCc2cc(S(=O)(=O)N3CCN(Cc4ccc5c(c4)OCO5)CC3)ccc21	0.8	-2.2
66	Cc1nnc2ccc(N3CCN(C(=O)c4ccccc4)CC3)nn12	1	0.062
67	O=C(Nc1ccccc1-c1nc2ccccc2[nH]1)c1ccc(N2C(=O)CCC2=O)cc1	1	0.81
68	O=C(Nc1ccc(OC(F)(F)F)cc1)C1OC2OC3(CCCCC3)OC2C2OC3(CCCCC3)OC12 (stereo not given)	1	0.21
69	COc1ccc(S(=O)(=O)N2CC=C(C(=O)Nc3ccc(OC)c(Cl)c3)CC2)cc1	1	0.1
70	Cc1ccccc1-c1nc(CS(=O)(=O)CC(=O)Nc2c(C)cccc2C)c(C)o1	1.2	1.6
71	CCc1ccc(NC(=O)C2CC(=O)N(c3ccc(OC)cc3)C2)cc1 (stereo not given)	1	0.035
72	Cc1cc(C)cc(-n2ccnc2SCC(=O)Nc2ccccc2F)c1	0.79	-0.21
73	O=c1[nH]c(-c2ccc3c(c2)OCO3)nc2sc3c(c12)CCCC3	1.3&1.1	2.3&1.3
74	Cc1nc(CN2CCN(S(C)(=O)=O)CC2)cs1	0.87	-2.4
75	CCCCCCCCNc1c(C(=O)OCC)c(=O)[nH]c2ccccc12	1	0.1
76	COC(=O)c1c(NC(=O)C(C)Oc2ccc(Cl)cc2Cl)sc2c1CCCC2 (stereo not given)	1	0.13
77	O=C(Nc1ccc2nc(-c3ccccn3)[nH]c2c1)c1ccccc1F	0.6	-5.1
78	CCN(CC)c1nc(C)nc2sc(C(=O)N3CCN(c4ccccc4F)CC3)c(C)c12	1	0.4
79	CCCCNC(=O)C1c2cc(OC)c(OC)cc2C(=O)N2CCc3ccccc3C12 (stereo not given)	1	-0.045
80	Cc1cccnc1NC(=O)C1CCN(S(=O)(=O)c2ccc3c(c2)CCC(=O)N3)CC1	1	0.33
81	COc1ccc(NS(=O)(=O)c2ccc(C3CNC(=O)C3)cc2)cc1OC (stereo not given)	1	0.26
82	CC1CCCCN1CCNC(=O)CN1C(=O)CSc2ccc(S(=O)(=O)N3CCOCC3)cc21 (stereo not given)	1	0.42
83	Cc1ccc(NC(=O)Cc2nn(C)c(=O)c3ccccc23)cc1C	1.1	0.88
84	COc1ccc(CCNC(=O)C2CCCN(Cc3nc(-c4ccccc4C)oc3C)C2)cc1OC (stereo not given)	1.1	1.7
85	CCC(C)NC(=O)c1cc(=O)[nH]c2ccc(S(=O)(=O)N3CCCCC3CC)cc12 (stereo not given)	0.78	-2.3
86	CCCCN(CCCC)CC(O)CN(c1ccccc1OC)S(=O)(=O)c1ccc(C)cc1 (stereo not given)	0.89	-0.72
87	CCOC(=O)c1ccc(NC(=O)c2cc3c(n(-c4ccc(OC)cc4)c2=O)CC(C)(C)CC3=O)cc1	1.1	1.2
88	CSc1cccc(NS(=O)(=O)c2ccc3[nH]cc(C(=O)N4CCN(C)CC4)c(=O)c3c2)c1	0.89	-2
89	COc1ccc2c(c1)CCc1sc(NC(=O)c3cccc(Cl)c3)nc1-2	1	0.71
90	O=C(Cn1nc(-c2ccc(Cl)cc2)ccc1=O)NCCCN1CCN(Cc2ccccc2)CC1	0.99	-0.27
91	COc1ccc(-n2nc(C(=O)Nc3ccc(F)cc3)c3ccccc3c2=O)cc1	1	0.46
92	CNC(=O)C12CC3CC(CC(Cl)(C3)C1)C2	1	0.34
93	Cc1ccc(NC(=O)Cn2c(SCc3ccccc3F)nc3ccncc32)cc1F	1	0.69
94	O=C(Nc1ccc2oc(-c3ccc(F)cc3Cl)nc2c1)c1ccccc1	1.1	4
95	Cc1ccc2c(c1)c1c(n2CC(O)CN2CCCCC2)C(=O)CCC1 (stereo not given)	1	0.019
96	O=C(Nc1ccc2oc(-c3ccc(F)cc3)nc2c1)c1ccc(F)cc1	0.86	-2.2
97	COc1ccc(CNC(=O)C2CCCN(S(C)(=O)=O)C2)c(OC)c1 (stereo not given)	1	-0.016
98	O=C(NCCc1nc(-c2ccccc2)cs1)C1(c2ccccc2)CC1	0.69	-8.3
99	CCOC(=O)c1cnc2cc(C(F)(F)F)ccc2c1Nc1ccc(OC)c(Cl)c1	0.9	-1.7

Whole records as entered above. Values in the order: CBX7 AlphaScr	CBX7 AlphaScr z-score
Listed for O=C(Cn1nc(-c2ccc(Cl)cc2)ccc1=O)NCCCN1CCN(Cc2ccccc2)CC1 → 0.99	-0.27
Listed for Cc1ccc(NC(=O)Cn2c(SCc3ccccc3F)nc3ccncc32)cc1F → 1	0.69
